Screens as filed in PubChem.
VACV Venus inh – vaccinia inhibition (Venus reporter). Vaccinia virus Venus reporter expression, fluorescence. Potency, µM (doses to about 36.5 µM), inactives show at the highest dose activity change, negative = inhibition, hits mostly inhibitors. actives 0.46% (n = 330,000). AID 720580; active means well fitted inhibition curve with a large enough effect; inconclusive means small, poorly fitted or top-dose-only effect; inactive means no such curve, though single readings can be large or run the other way; tested in A549 cells; note: nearly all actives have a fitted effect of over 30% in size; inactives centre near -10
VACV mCherry inh – vaccinia inhibition (mCherry reporter). Vaccinia virus mCherry reporter infection, fluorescence; about a quarter of the inactives have no number. Potency, µM (titrated, usually from 36.5 µM), inactives show at the highest dose activity change, negative = inhibition, hits mostly inhibitors. actives 0.63% (n = 310,000); active = well fitted inhibition curve with a large enough effect; inconclusive = small, poorly fitted or top-dose-only effect; inactive = no such curve, though single readings can be large or run the other way; tested in A549 cells; note: nearly all actives have a fitted effect of over 35% in size; inactives centre near -10
* hit, by the source's call; i = inactive; ? = inconclusive; / = no result given; & = joins results of further samples; [ ] = dose if it differs, or a comment. % is set by controls: 0 for no effect and ±100 for the full control effect; potency is the fitted concentration of half-maximal effect.

Order of results – VACV Venus inh	VACV mCherry inh
> O=C(Cc1cccs1)N1CCN=C1SCc1ccc(F)cc1
    -11%	-15%
> Cc1cc(N2CCN(c3cccc(C)c3C)CC2)nc(-c2ccccc2)n1
    -6%	/
> c1ccc(CSc2ccc(-c3ccc4c(c3)OCO4)nn2)cc1
    -22%	-3%
> CCCNC(=O)N1CCC(C(=O)c2cccc(F)c2)CC1
    -4%	-13%
> COc1ccc(OC)c(-c2cc(-c3cccnc3)nc(N)c2C#N)c1
    -28%[7.34 µM]	-13%[7.34 µM]
> COCCNC(=O)c1ccc2c(c1)N(Cc1cccc(Cl)c1)C(=O)c1ccccc1S2(=O)=O
    -18%	-11%
> O=C(O)c1ccccc1C(=O)Nc1cccc([N+](=O)[O-])c1
    -4%	i
> O=C(/C=C/c1ccc(Cl)cc1Cl)n1cccn1
    -5%	-6%
> COc1cc(C2NC(=O)c3c(sc4c3CCN(C)C4)N2)cc(Br)c1OC(=O)c1ccc(C)cc1 (configuration not stated)
    11%	-13%
> Cc1nc(Br)c(Br)n1Cc1ccccc1
    -20%	i
> COc1ccc(-n2c(SCC(=O)N(C)C3CCS(=O)(=O)C3)nc3ccc(O)cc3c2=O)cc1OC (configuration not stated)
    3%	-18%
> CN(C)Cc1ccc(O)c(CCc2ccccc2)n1
    3%	-4%
> COc1ccc(C2=Nc3ccccc3NC(=O)C2N(CCc2cc(OC)cc(OC)c2)C(C)=O)cc1 (configuration not stated)
    -3%	i
> COC(=O)c1ccccc1NC(=O)C1CC(=O)N(c2ccc(OC)cc2)C1 (configuration not stated)
    -20%	i
> CCOC(=O)c1ccc(NC(=O)CSc2nc3c([nH]c4ccccc43)c(=O)n2C)cc1
    -17%	-26%

Exported field by field: entries from further up.
COc1ccc(-n2c(SCC(=O)N(C)C3CCS(=O)(=O)C3)nc3ccc(O)cc3c2=O)cc1OC (configuration not stated)
  VACV Venus inh = 3%
  VACV mCherry inh = -18%
CCOC(=O)c1ccc(NC(=O)CSc2nc3c([nH]c4ccccc43)c(=O)n2C)cc1
  VACV Venus inh = -17%
  VACV mCherry inh = -26%
COc1ccc(OC)c(-c2cc(-c3cccnc3)nc(N)c2C#N)c1
  VACV Venus inh = -28%[7.34 µM]
  VACV mCherry inh = -13%[7.34 µM]
O=C(O)c1ccccc1C(=O)Nc1cccc([N+](=O)[O-])c1
  VACV Venus inh = -4%
  VACV mCherry inh = i

(list continues)
Order of results – VACV Venus inh	VACV mCherry inh
> S=C(NC1CC1)N1CCN(C(=S)NC2CC2)CC1
    -2%	-12%
> Cc1ccc(SCC(=O)N2CCN(S(=O)(=O)c3cccs3)CC2)cc1
    -21%	-1%
> COc1ccccc1C1NC(c2ccc3c(c2)OCO3)=CC(c2cc(Cl)ccc2O)N1 (configuration not stated)
    -10%	-23%
> CC[C@@H](C)[C@@H]1CN([C@@H](C)CN2CCC[C@H]2CN2C(N)=NC[C@@H]2Cc2ccccc2)C(=N)N1CCc1ccc(Cl)c(Cl)c1
    -5%	i
> CC12CCC(=O)N1C(C(=O)Nc1nccs1)CS2 (configuration not stated)
    -2%	-4%
> CCOCCCn1c(SCC(=O)N(C)C2CCS(=O)(=O)C2)nc2ccccc2c1=O (configuration not stated)
    -14%	i
> Cc1cc(NC(=O)CSc2nnc3ccc(-c4ccccc4)nn23)no1
    -12%	i
> COc1ccc(Cl)cc1NCc1nnc2n1CCCCC2
    -1%	-4%
> CC(C)(C)NC(=O)c1ccc2c(c1)N(CC(=O)N1CCCCC1)C(=O)C(C)(C)O2
    -13%	-18%
> Cc1ccc(OC(=O)COc2ccccc2C)cc1
    -10%	-1%
> COC(=O)c1c(NC(=O)CCc2ccc(C)o2)sc(C)c1C
    4%	/
> C=CCN=C(NC#N)SC
    -16%	i
> CC1CCCN(C(=O)Cc2cn(Cc3cccc(Cl)c3)c3ccccc23)C1 (configuration not stated)
    -4%	-15%
> COc1cccc(CNc2nc3cc(-c4cccc(C(=O)NCCO)c4)sc3c(=O)n2C)c1
    1%	-1%
> COc1ccc(NC(=O)CSCc2cc(=O)c3cc(C)ccc3[nH]2)cc1
    ?	-25%
> CCCC(=O)C1=C(O)C(C(=O)OC)C(C)(C)CC1=Nc1ccc(C)cc1 (configuration not stated)
    -20%	-16%
> CCOCC(=O)N1CCc2ccccc21
    -7%	/
> O=C(Nc1ccc(-c2cscn2)cc1)C1CCCN(Cc2ccc(CO)o2)C1 (configuration not stated)
    -19%	-5%
> O=C(NCC(=O)N1CCN(c2cccc(Cl)c2)CC1)c1ccc(Br)o1
    -11%	-1%
> CCOc1ccc(NC(=O)CN(C)S(=O)(=O)c2ccc3c(c2)c(=O)n(C)c(=O)n3C)cc1
    -17%	-11%
> NS(=O)(=O)c1ccc(Nc2nc(-c3ccc(O)cc3O)cs2)cc1
    -15%	i
> COc1ccc(CNC(=O)CN(Cc2ccc(OC)cc2)C(=O)CCC(=O)Nc2nccs2)cc1
    -3%	-19%
> O=C(CSc1nnc(CNc2ccc(F)cc2)n1Cc1ccco1)NC1CC1
    -18%	i
> Cc1cccc(C(=O)N2[C@@H](C(C)C)COc3cc(Br)ccc3S2(=O)=O)c1
    -27%	?
> COc1ccc(-n2ncc3c(NC(C)(C)CO)ncnc32)cc1
    -13%	i
> CCc1ccc(-c2nc(CS(=O)CC(=O)NCCc3ccc(Cl)cc3)c(C)o2)cc1 (configuration not stated)
    -12%	-11%
> C[C@@H]1CN([C@H](C)CO)C(=O)CCCn2nncc2CO[C@H]1CN(C)C(=O)Nc1ccc(N2CCCCC2)cc1
    0%	-8%
> O=C(NCCN1C(=O)S/C(=C\c2ccc(Cl)cc2)C1=O)C1=COCCO1
    -10%	-22%
> COc1cc(NC(=O)c2cc3c(C)nc4ccccc4c3o2)cc(OC)c1OC
    -23%	9%
> CCOc1ccc(N2C(=O)c3cccnc3C2Nc2ccc(F)cc2)cc1 (configuration not stated)
    0%	-21%
> COc1ccc(NC(=O)NC2CCCc3ccccc32)cc1 (configuration not stated)
    -17%	i
> O=C(Cc1ccccc1)N/N=C/c1cc(Br)cs1
    -9%	-13%
> COc1ccc(CCC(=O)Nc2cc3c4c(c2)CCC(=O)N4CCC3)cc1
    -10%	-2%
> CCOC(=O)CC1=C(C#N)C(c2cccnc2)C(C(=O)OCC)=C(N)O1 (configuration not stated)
    16%	-8%
> CCCCNC(=S)N1CCN(C)CC1
    3%	-12%
> O=C(O)c1cccc(NC(=S)N/N=C/c2cccc(O)c2)c1
    -3%	-8%
> COc1ccc(C(=O)NC(=S)NNC(=O)c2cccnc2)cc1
    -13%	-21%
> Cc1cc(C)c(C(=O)NC2CCCc3c2cnn3-c2cccc(C)c2C)o1 (configuration not stated)
    6%	-28%
> CC1CCCN(CCCNC(=O)c2ccc3c(c2)N(Cc2ccc(F)cc2)C(=O)c2ccccc2S3=O)C1 (configuration not stated)
    ?	?
> CCc1ccc(CN(C(=O)c2cc3ccccc3oc2=O)C2CCS(=O)(=O)C2)cc1 (configuration not stated)
    -16%	-13%
> COc1cccc(N2CCN(C(=O)Cn3cnc4onc(-c5ccc(F)cc5)c4c3=O)CC2)c1
    -15%	-24%
> Cc1ccc(/C=C/C(=O)N2CCC(Cc3ccccc3)CC2)cc1
    -12%	-7%
> Cc1cc(NC(=O)Cn2ccc([N+](=O)[O-])n2)no1
    -18%	?
> NS(=O)(=O)c1ccc(CNC(=O)c2cc(=O)[nH]c3ccccc23)cc1
    5%	i
> Cc1ccc(-n2c(SCC(=O)NCCN3C(=O)CSC3=O)nnc2-c2ccccc2)cc1C
    -9%	-1%
> CCc1nnc(N/N=C/c2cc(C)c(C)cc2C)n1N
    13µM*	10µM*
> CCOC(=O)N1CCN(C(=O)Nc2ccccc2Cl)CC1
    13%	-6%
> CC(=O)NS(=O)(=O)c1ccc(NC(=O)c2ccc(-n3nc(C)cc3C)cc2)cc1
    -7%	i
> COc1ccccc1/C=N\Nc1cn[nH]c(=O)c1Cl
    -4%	-5%
> CCn1c(CNc2ccc(F)cc2)nnc1SCC(=O)OC1CCCCC1
    -7%	-18%
> CCCN1C(=O)C(Cc2nc3ccccc3c(=O)n2-c2ccccc2)c2cc(C)ccc21 (configuration not stated)
    ?	-22%&-4%
> CCCCOc1cccc(C(=O)N(Cc2cccs2)C2CCS(=O)(=O)C2)c1 (configuration not stated)
    -27%	?
> COc1cc(NC(=O)c2nc(-c3ccncc3)no2)cc(OC)c1OC
    5%	-6%
> FC(F)(F)c1nnc2ccc(Cl)nn12
    -10%	i
> CCN(CC)CCN1C(=O)C(=O)/C(=C(/O)c2ccc3c(c2)CC(C)O3)C1c1ccc(OC)cc1 (configuration not stated)
    -4%	-1%
> Cc1ccc2cn[nH]c2c1N
    -10%	-19%
> Cc1ccc(-n2ncc3c(=O)n(CC(=O)N4CCN(c5ccccc5)CC4)cnc32)cc1C
    8%	-9%
> O=C1OCC2=C1C(c1cccc(Cl)c1)CC(=O)N2c1ccc(C(F)(F)F)cc1 (configuration not stated)
    -4%	10%
> NC(=O)NOCc1ccccc1F
    -1%	i
> CCOC(=O)C1=CCN(S(=O)(=O)c2ccc(F)cc2)C1c1cccc(Cl)c1 (configuration not stated)
    -4%	34%[activator]

Next entries follow:
Order of results – VACV Venus inh	VACV mCherry inh
> Cc1cccc2c(N)c3c(nc12)N(C)CC3
    -10%	i
> COc1ccc(C(C#N)=C2C=C(Cl)C(=NO)C=C2Cl)cc1
    ?	?
> COc1ccc(C(C)=O)cc1Cn1c(C)c(C(=O)NCc2ccc3c(c2)OCO3)sc1=O
    2%	1%
> O=C(CCN1C(=O)C2CCCCC2C1=O)Nc1cc(F)ccc1F (configuration not stated)
    -15%	-12%
> O=c1[nH]c(C2C3CC4CC(C3)CC2C4)nc2ccccc12 (configuration not stated)
    -9%	0%
> CC(C)CCNC(=O)CCC(=O)N1Cc2ccccc2Oc2ncccc21
    -5%	-14%
> Cc1ccc(-c2ccc3c(c2)O[C@H](CN(C)C(=O)CC2CC2)[C@H](C)CN([C@@H](C)CO)S3(=O)=O)cc1
    -13%	-28%
> Cc1ccc(CNC(=O)Cn2cc(C(F)(F)F)ccc2=O)cc1
    -4%	i
> CCC1CCCCN1C(=O)Cn1c(=O)oc2ccccc21 (configuration not stated)
    -11%	i
> CCOC(=O)N1CCC(NC(=O)Cn2ncc3c4ccccc4n(C)c3c2=O)CC1
    -8%	/
> COc1ccc(/C=N/NC(=S)NC2CCS(=O)(=O)C2)cc1OC (configuration not stated)
    -11%	-1%
> O=C(Nc1ccc2ccccc2c1[N+](=O)[O-])c1ccccc1
    -17%	?
> O=C(COC(=O)c1ccco1)Nc1ccc2c(c1)OCO2
    -12%	-11%[1.46 µM]
> Cc1cc(N/N=C/c2ccccc2Br)nc2ccccc12
    -13%	-8%
> Cc1ccc(C(=O)CN(Cc2ccccc2)C2=NCCS2)cc1
    -9%	i
> CC(=O)Nc1ccc(Oc2ncccn2)c(Cl)c1
    5%	/
> CCOC(=O)C1=C(c2ccccc2)NC(=O)NC1c1ccc(O)c(OCC)c1 (configuration not stated)
    -13%	-15%
> C[C@@H]1CN([C@H](C)CO)C(=O)c2cc(Br)cnc2O[C@H]1CN(C)C(=O)c1ccccc1
    -15%	1%
> COc1cc(/C=C(\NC(C)=O)C(=O)NC(C)(C)CC(C)(C)C)ccc1OC(C)=O
    -7%	-12%
> c1ccc(OCc2nn3c(Cn4cnc5ccccc54)nnc3s2)cc1
    -16%	-29%
> CC(=O)OC1COC(OC(C)=O)CO1 (configuration not stated)
    3%	-2%
> COc1ccc(C(c2nnnn2Cc2ccccc2)N2CCN(C(=O)c3ccco3)CC2)cc1 (configuration not stated)
    -18%	-21%
> Cc1ccc2c(CNCc3cccc(Cl)c3)c(C(=O)O)n(Cc3ccc(F)cc3Cl)c2c1
    -4%	0%
> CCC1(C)Cc2c(sc3nnn(CC(=O)Nc4ccc(C)cc4)c(=O)c23)CO1 (configuration not stated)
    -28%	i
> Cc1cccc(NS(=O)(=O)c2nnc(NC(=O)c3cccc(C)c3)s2)c1
    -3%&-1%	-9%&-2%
> OC[C@@H]1CN(Cc2cccs2)C[C@H](n2cnc3c(N4CCCC4)ncnc32)O1
    -9%	36%[activator]
> O=C1CCCN2N=C(SCC(=O)Nc3ccc(F)cc3F)SC2=N1
    9%	0%
> O=C(CN1C(=O)NC2(CCCCC2)C1=O)N1CCN(S(=O)(=O)c2ccccc2)CC1
    -4%	-10%
> CN(Cc1cccc(F)c1)C(=O)CSc1nnnn1C1CC1
    -9%	-12%
> Cc1nnc(SCC(=O)Nc2ccccc2)c2ccccc12
    2%	-1%

Compounds listed so far that contain a tert-butyl group (two):
Order of results – VACV Venus inh	VACV mCherry inh
> CC(C)(C)NC(=O)c1ccc2c(c1)N(CC(=O)N1CCCCC1)C(=O)C(C)(C)O2
    -13%	-18%
> COc1cc(/C=C(\NC(C)=O)C(=O)NC(C)(C)CC(C)(C)C)ccc1OC(C)=O
    -7%	-12%

Further entries follow.
Order of results – VACV Venus inh	VACV mCherry inh
> COCCn1c(SCc2ccccc2F)nc2c([nH]c3ccccc32)c1=O
    -21%	-21%
> Cc1cc(=O)oc2cc(NC(=O)c3cccc(F)c3)ccc12
    -1%	-10%
> COc1ccc(NC(=O)N2CCN(S(=O)(=O)c3ccc4c(ccn4C)c3)CC2)c(OC)c1
    -18%	-19%
> COc1ccccc1CCC(=O)Nc1cc(S(=O)(=O)N2CCOCC2)ccc1N1CCCC1
    -2%	?
> COc1cccc(-c2nc3ccccc3s2)c1
    -10%	/
